Screening results from PubChem.
Ecoli rRNA inh: reduced GFP signal of wild-type E. coli, primary screen, bacterial rRNA inhibitor project, GFP/RFP fluorescence, OD600, single point; E. coli WT GFP vs humanized-ribosome RFP mutants, 24 h; active compounds read low; DMSO median 0, no signal -100; GFP signal change (wild-type ribosome), % (concentration not given with the values); actives 1.6% (n = 350,000);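 active = significant combined selectivity score with lowered wild-type GFP, culture density cut under 30%, mutant RFP and density less affected; inactive = any of these conditions unmet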; also: one replicate is shown; some compounds called inactive have numbers as strong as hits
AF4-AF9 inh: inhibitors of AF4 peptide binding to AF9, primary screen, biochemical, AlphaScreen, biotin-AF4 peptide, FLAG-AF9, single point; Protein AF-9 (Homo sapiens), P42568; AID 651704, 2012; inhibition, % at 10 µM; actives 0.47% (n = 350,000);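 active = every replicate reaching a set inhibition limit, whatever the replicate mean, cut at about 25% in these data; inconclusive = mean inhibition reaches that limit but some replicates miss it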;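 also: 0% = plate neutral control median and 100% = total signal loss; the record names both 10 and 1 µM as test concentration; the first replicate is given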
Target sequence (P42568 whole entry, looked up): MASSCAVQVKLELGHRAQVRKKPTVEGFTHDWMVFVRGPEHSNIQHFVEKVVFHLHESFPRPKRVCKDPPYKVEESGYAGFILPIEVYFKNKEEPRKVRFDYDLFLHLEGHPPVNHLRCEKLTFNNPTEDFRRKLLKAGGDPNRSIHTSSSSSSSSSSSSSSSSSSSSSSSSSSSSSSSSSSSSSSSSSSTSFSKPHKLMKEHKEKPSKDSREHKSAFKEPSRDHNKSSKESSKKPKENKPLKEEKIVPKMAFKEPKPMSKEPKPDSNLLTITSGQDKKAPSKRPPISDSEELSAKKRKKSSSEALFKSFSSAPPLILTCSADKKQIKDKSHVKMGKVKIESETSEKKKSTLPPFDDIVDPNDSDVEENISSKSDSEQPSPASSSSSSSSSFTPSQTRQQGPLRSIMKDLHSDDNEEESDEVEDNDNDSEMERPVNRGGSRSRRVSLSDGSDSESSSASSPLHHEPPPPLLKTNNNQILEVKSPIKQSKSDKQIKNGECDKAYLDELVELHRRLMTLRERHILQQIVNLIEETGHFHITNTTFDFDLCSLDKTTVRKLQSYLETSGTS
Ecoli rRNA inh OD600: second read-out of Ecoli rRNA inh, no call of its own (marks repeat the call); OD600 change, %; measured here: OD600 growth;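 optical density of the mix in the first replicate; 0 = DMSO median and -100 = no signal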
Ecoli rRNA inh RFP: also measured in Ecoli rRNA inh; calls as there; RFP signal change, %; measured here: RFP humanized mutant strains;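 first replicate; 0 = DMSO median and -100 = no signal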
Numbers without * were called inactive; ? = inconclusive; & = joins results of further samples. A portion of the library. The share of hits here may be higher or lower than overall.

SMILES	Ecoli rRNA inh	Ecoli rRNA inh OD600	Ecoli rRNA inh RFP	AF4-AF9 inh
C[C@@H]1CCCCO[C@@H](CN(C)C(=O)Nc2ccc3c(c2)OCO3)[C@H](C)CN([C@H](C)CO)C(=O)c2cc(NS(=O)(=O)c3ccc(Cl)cc3)ccc2O1	1.9	-2.8	-0.8	-2.5
C[C@@H]1CCCCO[C@H](CN(C)S(=O)(=O)c2ccccc2)[C@@H](C)CN([C@H](C)CO)C(=O)c2cc(NC(=O)Nc3ccc4c(c3)OCO4)ccc2O1	3.0	8.2	-0.9	1.1
CO[C@H]1CN(C)C(=O)c2cc(NC(=O)C3CC3)ccc2OC[C@H](C)N(C(=O)c2cnccn2)C[C@@H]1C	-0.4	-2.5	0.3	?
O=C(CCN1CCCCC1)N[C@H]1CC[C@H](CCNS(=O)(=O)c2ccc(Cl)cc2)O[C@H]1CO	-3.3	-5.9	4.7	4.2
NC(c1csc(NC(=O)Nc2cccc(Cl)c2)n1)c1ccccc1Cl (configuration not stated)	-50.0	-78.7	-15.5	2.6
C[C@H]1CN([C@@H](C)CO)C(=O)c2cc(C#CCN(C)C)cnc2O[C@@H]1CN(C)C(=O)c1cccnc1	5.8	8.5	-4.8	-6.7
CCNC(=O)C[C@H]1CC[C@H]2[C@@H](COC[C@@H](O)CN2Cc2ccccc2F)O1	-0.7	4.7	-1.1	-0.5
COc1cccc(S(=O)(=O)N[C@@H]2CC[C@@H](CCNC(=O)Nc3cc(F)ccc3F)O[C@H]2CO)c1	-3.0	-4.1	0.4	8.9
C[C@H](O)C#Cc1ccc2c(c1)O[C@H](CN(C)C(=O)C1CCC1)[C@H](C)CN([C@H](C)CO)S2(=O)=O	4.4	3.5	-0.9	-10.9
COCC(=O)N1[C@H](C#N)[C@H](c2ccccc2-c2ccc(C)cc2)[C@@H]1CO	-1.4	14.9	-1.0	-10.3
Cc1noc(C)c1NC(=O)Nc1ccc2c(c1)C(=O)N([C@@H](C)CO)C[C@H](C)[C@@H](CN(C)Cc1ccncc1)O2	0.8	-4.1	0.6	-0.6
C[C@@H]1CCCCO[C@@H](CN(C)C(=O)CCCN(C)C)[C@@H](C)CN([C@H](C)CO)C(=O)c2cc(NC(=O)Nc3cccc4ccccc34)ccc2O1	3.0	2.6	1.3	-5.3
CC(C)CC#Cc1ccc([C@H]2[C@@H](CO)N3C(=O)CN(C(=O)c4cccc(F)c4)C[C@@H]23)cc1	-8.3	-31.2	18.6	0.2
CN(C)Cc1cn(CC[C@@H]2CC[C@@H](NC(=O)Cc3cccnc3)[C@H](CO)O2)nn1	0.7	3.8	-1.0	-4.3
CC(C)C#Cc1cnc2c(c1)C(=O)N([C@@H](C)CO)C[C@@H](C)[C@@H](CN(C)C(=O)Cc1ccccn1)O2	1.3	-3.3	-6.1	-14.9
C[C@@H]1CCCCO[C@@H](CN(C)S(=O)(=O)c2ccc(F)cc2)[C@H](C)CN([C@@H](C)CO)C(=O)c2cc(N(C)C)ccc2O1	-2.6	-0.6	-0.6	1.4
COc1ccc(CCNC(=O)c2c(O)c3cc(OC)c(OC)cc3[nH]c2=O)cc1OC	4.2	12.8	-0.6	-6.8
CCOC(=O)c1cc(OC)c2cccc(CN3CCCC(C)(C(=O)NCCOC)C3)c2c1 (configuration not stated)	-3.6	-64.7	25.4	2.1
C[C@H](NC(=O)C[C@H]1CC[C@@H]2[C@H](COC[C@H](O)CN2C(=O)Nc2ccccc2)O1)c1ccccc1	-3.4	9.4	-3.0	-1.5
C/C=C/c1ccc(C2[C@H]3CNC[C@@H]2N3C(=O)Nc2cccc(Cl)c2)cc1 (some centres not stated)	-56.5&0.8	-73.7&8.9	-10.4&0.7	8.4&-2.7
O=C(C[C@@H]1CC[C@@H]2NC[C@@H](O)COC[C@H]2O1)NCCc1ccccc1	4.4	4.2	-3.5	-1.6
COc1ccc(CN(C)C[C@@H]2Oc3ccc(NC(=O)C4CCCCC4)cc3CC(=O)N([C@@H](C)CO)C[C@H]2C)cc1	0.7	-10.3	1.5	16.5
CCCS(=O)(=O)NC(=O)C1(C)CCN(C(=O)c2c(C)noc2C)C1 (configuration not stated)	6.6	6.2	-2.4	-1.6
CN(C)C(=O)C[C@H]1C[C@@H]2c3cc(NC(=O)Nc4ccc(F)cc4)ccc3O[C@@H]2[C@@H](CO)O1	-5.3	-9.2	0.4	1.6
Cc1ccc(S(=O)(=O)N(C)C[C@H]2Oc3ccc(NC(=O)Cc4ccccc4)cc3CC(=O)N([C@H](C)CO)C[C@H]2C)cc1	-3.6	-1.9	-0.8	8.5
(continued)
SMILES	Ecoli rRNA inh	Ecoli rRNA inh OD600	Ecoli rRNA inh RFP	AF4-AF9 inh
COc1ccc(S(=O)(=O)N(C)C[C@H]2OCCCC[C@H](C)Oc3ccc(NC(=O)Nc4ccc5c(c4)OCO5)cc3C(=O)N([C@H](C)CO)C[C@H]2C)cc1	-3.1	2.5	0.1	1.2
CCCC#Cc1ccc([C@@H]2[C@H]3CN(S(=O)(=O)c4ccccc4C)CCCCN3[C@H]2CO)cc1	5.3	9.0	7.2	-7.7
CCOC(=O)N(C)C[C@H]1OCc2cnnn2CCCC(=O)N([C@H](C)CO)C[C@@H]1C	13.9&1.1	15.9&2.2	3.8&-0.4	1.0&0.2&0.4
C[C@H]1CN([C@@H](C)CO)C(=O)Cc2cc(NC(=O)CCC(F)(F)F)ccc2O[C@H]1CN(C)Cc1ccncc1	6.6	21.1	1.9	-1.4
O=C(Nc1cccc(Cl)c1)N[C@@H]1CC[C@@H](CCNC(=O)C2CCCC2)O[C@H]1CO	-6.3	-3.6	1.1	2.5
CC(=O)N1[C@H](CO)[C@@H](c2ccccc2)[C@H]1CNC(=O)CN1CCOCC1	4.3	9.5	-2.5	-0.3
O=C(C[C@@H]1C=C[C@H](NC(=O)C2CC2)[C@H](CO)O1)NCCCN1CCOCC1	-3.8	3.3	5.6	-13.5
C[C@H]1CN([C@@H](C)CO)C(=O)c2cc(C#Cc3ccccc3)cnc2O[C@H]1CN(C)Cc1ccccn1	1.2	-1.5	3.5	2.3
C[C@@H]1CN([C@H](C)CO)C(=O)Cc2cc(NC(=O)C3CCCCC3)ccc2O[C@@H]1CN(C)Cc1ccc(Cl)c(Cl)c1	-0.3	4.6	-0.8	0.5
CCC(=O)N(C)C[C@@H]1Oc2cc(C#CC3(O)CCCC3)ccc2S(=O)(=O)N([C@H](C)CO)C[C@@H]1C	4.3	12.8	-0.9	-0.5
C[C@H]1CN([C@@H](C)CO)S(=O)(=O)c2ccc(-c3cccc(C(=O)N(C)C)c3)cc2O[C@H]1CN(C)C(=O)Nc1ccc(F)cc1	-4.7	4.4	-0.3	1.4
C[C@@H]1CN([C@@H](C)CO)C(=O)c2cccc(NS(=O)(=O)c3ccc(Cl)cc3)c2O[C@@H]1CN(C)C(=O)Nc1ccc(F)cc1	-2.3	-9.4	-0.5	1.2
CO[C@@H]1CN(C)C(=O)c2cc(NC(C)=O)ccc2OC[C@@H](C)N(C(=O)C2CCC2)C[C@H]1C	3.0	7.3	-0.5	-2.0
CNC[C@@H]1Oc2c(NC(=O)c3cc(C)nn3C)cccc2C(=O)N([C@H](C)CO)C[C@@H]1C	4.9	5.7	-0.4	-2.6
CO[C@H]1CN(C)C(=O)c2cc(NC(=O)Nc3c(C)noc3C)ccc2OC[C@@H](C)N(C)C[C@@H]1C	0.7	-0.8	1.0	-3.1
C[C@@H]1CN([C@H](C)CO)C(=O)c2cc(NS(=O)(=O)c3cccs3)ccc2O[C@H]1CN(C)C(=O)Nc1ccc(F)cc1	-0.3	0.2	1.3	-3.9
CC(C)C#Cc1ccc2c(c1)O[C@@H](CN(C)C(=O)CN(C)C)[C@@H](C)CN([C@@H](C)CO)S2(=O)=O	4.3	8.3	-0.3	0.4
CCCCc1c(-c2ccccc2OC)ncn1Cc1cccc(F)c1F	-58.0	-79.3	-14.3	5.6
COC(=O)C[C@H]1CC[C@H]2[C@@H](COC[C@@H](O)CN2C(=O)Nc2cccc(F)c2)O1	-11.3	-20.9	-2.6	0.0
COCC(=O)N1C[C@H](C)[C@H](OC)CN(C)C(=O)c2cc(NC(=O)NC(C)C)ccc2OC[C@H]1C	-0.3	1.6	-1.3	0.1
COc1ccc(NC(=O)N(C)C[C@@H]2Oc3ccc(NC(=O)CCCN(C)C)cc3C(=O)N([C@@H](C)CO)C[C@@H]2C)cc1	2.0	11.8	-1.9	1.4
CC1(C(=O)O)CCN1C(=O)c1cccnc1Oc1ccccc1 (configuration not stated)	8.0	5.0	-0.8	4.6
COc1cc(F)ccc1-c1csc(C(C)(NC(C)=O)c2ccccc2)n1 (configuration not stated)	-1.6	-19.5	3.2	-3.1
CCCC#Cc1cnc2c(c1)C(=O)N([C@@H](C)CO)C[C@H](C)[C@H](CN(C)C(=O)Cc1ccccc1)O2	3.9	-0.8	-1.8	-2.9
Cc1noc(C)c1NC(=O)N(C)C[C@@H]1Oc2ccc(NC(=O)c3ccncc3)cc2C(=O)N([C@@H](C)CO)C[C@@H]1C	4.8	6.6	-2.1	0.1
(more compounds)
SMILES	Ecoli rRNA inh	Ecoli rRNA inh OD600	Ecoli rRNA inh RFP	AF4-AF9 inh
COc1ccc(C#Cc2ccc([C@H]3[C@H]4CN(C)CCCCN4[C@H]3CO)cc2)cc1	-3.0	3.7	-0.3	4.8
Cc1cccc(-c2ccc([C@@H]3[C@@H](CO)N4CCCCN(C(=O)c5ccncc5)C[C@H]34)cc2)c1	2.8	-5.5	-2.3	1.2
COc1ccc(S(=O)(=O)Nc2ccc3c(c2)CC(=O)N([C@@H](C)CO)C[C@H](C)[C@H](CN(C)C(=O)Nc2ccccc2)O3)cc1	1.6	-5.5	0.0	-2.4
C[C@@H]1CN([C@@H](C)CO)C(=O)c2cccc(NS(=O)(=O)c3cn(C)cn3)c2O[C@@H]1CN(C)Cc1ccc(C(=O)O)cc1	5.2	7.5	-2.9	-0.5
CO[C@H]1CN(C)C(=O)c2ccc(NC(=O)c3ccccc3F)cc2OC[C@@H](C)N(CC2CCOCC2)C[C@@H]1C	-7.3	-8.3	4.7	0.3
CN(C)CC(=O)N1[C@@H]2Cn3c(ccc(C4=CCCC4)c3=O)[C@H]1[C@@H](C(=O)NCC1CC1)[C@@H]2CO	2.7	7.9	-4.0	-1.6
COCCNC(=O)C1(C)CCCN(C(=O)c2ccc(C(F)(F)F)cc2)C1 (configuration not stated)	21.5	9.3	1.3	-4.4
C[C@H](CO)N1C[C@H](C)[C@H](CN(C)C)Oc2ccc(NC(=O)CCC(F)(F)F)cc2CC1=O	2.2	10.6	-1.7	-1.8
C/C=C/c1ccc2c(c1)O[C@H](CN(C)C(=O)NC1CCCC1)[C@H](C)CN([C@@H](C)CO)S2(=O)=O	-0.2	-11.7	2.1	-0.8
COc1ccc(NC(=O)Nc2ccc3c(c2)C(=O)N([C@@H](C)CO)C[C@@H](C)[C@H](CN(C)Cc2ccccc2)OCCCC[C@@H](C)O3)cc1	2.7	-1.8	0.9	4.4
CN1C(=O)c2cc(NC(=O)Nc3ccc(Cl)cc3)ccc2OC[C@H]2O[C@H](CC(=O)O)CC[C@@H]21	0.1	-5.3	-2.4	-1.0
COCCCNC(=O)C[C@H]1C[C@H](C(=O)N2CCCCC2)[C@@]2(C)c3[nH]c4ccc(Cl)cc4c3CCN2C1=O	0.0	2.4	-2.6	-2.8
C[C@H]1CN([C@@H](C)CO)C(=O)c2cc(C3=CCCC3)cnc2O[C@@H]1CN(C)Cc1ccccc1C(=O)O	2.7	7.9	-4.0	-2.3
C[C@H]1CN([C@@H](C)CO)S(=O)(=O)c2ccc(-c3ccccc3)cc2O[C@@H]1CN(C)C(=O)CN(C)C	-0.3	9.1	1.8	6.4
C[C@@H]1CN([C@@H](C)CO)C(=O)Cc2cc(NS(=O)(=O)c3cccs3)ccc2O[C@@H]1CN(C)C(=O)Nc1ccccc1	2.1	6.9	-1.7	-4.5
CC(C)(C)n1nnnc1C(c1ccccc1)N1CCN(C(=O)C2CCCO2)CC1 (configuration not stated)	10.0	5.4	1.0	-6.0
COCC(=O)Nc1ccc2c(c1)OC[C@@H](C)N(Cc1ccccn1)C[C@H](C)[C@H](OC)CN(C)C2=O	-0.3	5.2	-0.7	-0.1
COc1ccc(S(=O)(=O)N[C@@H]2CC[C@H](CC(=O)N3CCC(Cc4ccccc4)CC3)O[C@H]2CO)cc1	4.6	-14.8	19.1	0.8
COCC(=O)N1CCC2(CC1)CN(C(=O)c1ccccn1)[C@H](CO)c1c2c2ccc(OC)cc2n1C	2.2	5.7	-0.1	0.7

Another view of some results above.
Order of values: Ecoli rRNA inh | Ecoli rRNA inh OD600 | Ecoli rRNA inh RFP | AF4-AF9 inh
COc1ccc(NC(=O)Nc2ccc3c(c2)C(=O)N([C@@H](C)CO)C[C@@H](C)[C@H](CN(C)Cc2ccccc2)OCCCC[C@@H](C)O3)cc1
    2.7 | -1.8 | 0.9 | 4.4
CN1C(=O)c2cc(NC(=O)Nc3ccc(Cl)cc3)ccc2OC[C@H]2O[C@H](CC(=O)O)CC[C@@H]21
    0.1 | -5.3 | -2.4 | -1.0
COCCCNC(=O)C[C@H]1C[C@H](C(=O)N2CCCCC2)[C@@]2(C)c3[nH]c4ccc(Cl)cc4c3CCN2C1=O
    0.0 | 2.4 | -2.6 | -2.8
C[C@H]1CN([C@@H](C)CO)C(=O)c2cc(C3=CCCC3)cnc2O[C@@H]1CN(C)Cc1ccccc1C(=O)O
    2.7 | 7.9 | -4.0 | -2.3
C[C@H]1CN([C@@H](C)CO)S(=O)(=O)c2ccc(-c3ccccc3)cc2O[C@@H]1CN(C)C(=O)CN(C)C
    -0.3 | 9.1 | 1.8 | 6.4
